# Assay outcomes as filed in PubChem BioAssay.
# Mtb hypoxia rep = Mtb hypoxia fluorescent reporter inhibition; M. tuberculosis hypoxia-regulated fluorescent reporter, fluorescence; fluorescence inhibition, % (no concentration beside the values); 0.1% of 300,000 active; AID 1159583;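 active means 35 to 45% if threefold the growth effect, above 45% if 1.5-fold the growth effect; inactive means the rest, general growth blockers included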;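 further: wells of about 50 µL received 100 nL stock; 0% = vehicle wells and 100% = reference inhibitor wells; whole bacteria with a GFP reporter of the hypoxia response; strong numbers were not always called active; many hits fall short of the cut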
# Bead autofluor = flagged as autofluorescent in microsphere protease counterscreen; compound autofluorescence counterscreen, microsphere flow cytometry; hits give high values; AID 624483; 3.1% of 360,000 active; fluorescence intensity (concentration not given with the values);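 active means at least 3 SD above the mean of all compounds, about 16000 in these data; inconclusive means too few beads counted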;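 further: 100 nL of 1 mM stock went into each well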
# BJeLR lethal = kills HRASV12-expressing BJeLR cells | BJeLR (HRASV12) viability, CellTiter-Glo ATP luminescence, 48 h; reference of the scale not given here | inhibition, % (no concentration beside the values) | 0.17% of 300,000 active;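 active means replicate mean above 50%; inconclusive means above 50% but judged a plate artefact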;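 further: 50 nL library stock added to about 25 µL; numbers are from one replicate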
# Sa ugtP lethal = growth inhibition of S. aureus ugtP deletion strain; S. aureus RN4220 ugtP deletion, OD600 growth, 16 h; some inactives read as strong as hits; growth inhibition, % (concentration not given with the values); 0.54% of 330,000 active; AID 1259309;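 active means z-score under -3 and OD600 up to 0.15 on both plates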;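 further: plate controls were untreated wells for no effect and antibiotic for full effect; wells of about 80 µL received 100 nL stock; the first replicate is given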
# RN4220 kill = kills Staphylococcus aureus RN4220; S. aureus RN4220 growth, OD600, 16 h; inhibition, % (no concentration beside the values); 0.33% of 330,000 active; AID 1259311;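 active means z-score of -3 or lower and OD600 up to 0.18 on both plates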;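 further: plate controls were untreated cells for no effect and reference antibiotic for full effect; stock transfer was 100 nL into about 80 µL; one replicate is shown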
# PrP UTR inh = suppresses PrP 5' UTR mRNA reporter expression; inhibition, % (concentration not given with the values); 0.35% of 340,000 active; cell-based PrP 5' UTR mRNA reporter, plate reader; AID 488862;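 active means every replicate at 50% or more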;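 further: 0 = median of the neutral control wells; tested in H4 reporter cells; numbers are from one replicate; inactives centre near -14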
# Mtb hypoxia rep growth = also measured in Mtb hypoxia rep; calls as there; growth inhibition, %; measured here: M. tuberculosis growth (absorbance);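 0% = vehicle and 100% = reference antibiotic; read after six days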
# An asterisk follows results filed as active; ? = inconclusive; nt = no result given.
SMILES,Mtb hypoxia rep,Mtb hypoxia rep growth,Bead autofluor,BJeLR lethal,Sa ugtP lethal,RN4220 kill,PrP UTR inh
COc1ccc(C(=O)NCC(=O)N/N=C/C(C)=C/c2ccco2)cc1OC,nt,nt,1971,-24,nt,nt,-20
C#CCOCCOCCOCCNc1nc(OC)nc(N2CCN(C(=O)C(CCC(=O)O)n3cc(C(N)CO)nn3)CC2)n1 (configuration not stated),9,10,nt,nt,-2,6.2,nt
CNC(=O)c1cccn1-c1ccsc1C(=O)OC,nt,nt,2691,-3,-1,-1.9,-15
O=C(OCc1ccccc1)c1cccc(-c2nnn(Cc3ccccc3)n2)c1,-12,0,2880,-4,35,2.8,-24
O=C(c1cc2ccccn2n1)N1CCN(c2ccccn2)CC1,8,8,5949,-4,1,-11,-11
Cc1ccc(-c2nc(N)sc2CC(=O)OCC(=O)NCCC(C)C)cc1,13,-12,2143,1,9,-3.6,6
Cn1c(SCc2ccc(Br)cc2)nnc1-c1ccncc1,19,5,7231,2,7,4.2,-5
Oc1ccc(-c2cccc(-c3ccc(O)cc3)n2)cc1,13,5,6649,8,99*,98*,-35
Cc1ccc(NC(=O)CN(C)C(=O)C2COc3ccccc3O2)cc1 (configuration not stated),8,1,4168,-6,-3,4.1,75*
COc1cccc(CNS(=O)(=O)c2ccc(N3CCCC3=O)cc2)c1,5,-4,3939,1,6,4.9,3
CC(C)N(Cc1cc2ccccc2[nH]c1=O)C(=O)c1ccco1,3,0,2716,-5,0,4.9,1
COc1ccc(OC)c(S(=O)(=O)Nc2cc(C(=O)O)ccc2N2CC3CC(C2)c2cccc(=O)n2C3)c1 (configuration not stated),4,-4,4508,-2,6,5.0,-30
Cc1ccc(-n2nnnc2SCC(=O)Nc2ccc3c(c2)OCCO3)cc1C,11,6,2451,0,-2,5.2,-7
O=C(c1ccco1)N1CCN(C(=O)c2cccs2)CC1,8,3,8280,4,6,2.3,-4
O=c1c2c3nc4ccccc4nc3n(N=Cc3ccccn3)c2ncn1-c1ccccc1,-4,-5,nt,nt,-16,-2.8,nt
O=C(Nc1ccncc1)Nc1ccncc1,6,-4,4152,26,-1,11,-21
C=CCOc1cccc(C2/C(=C(\O)c3ccc4c(c3)OCCO4)C(=O)C(=O)N2CCN2CCOCC2)c1 (configuration not stated),13,8,5932,-15,6,3.7,0
CC1CCCC(C)N1C(=O)C1CC(c2ccc(F)cc2)=NO1 (configuration not stated),5,5,17330*,1,15,7.0,-13
CCCCN=C[C@]12CCC(O)CC1(O)CCC1[C@@H]2CC[C@]2(C)[C@H](C3C=CC(=O)O3)CCC12O (some centres not stated),0,6,3584,68*,3,4.9,83*
COC(=O)C(Cc1c[nH]c2ccccc12)NC(=O)c1ccccc1Br (configuration not stated),15,2,3359,-6,8,6.8,-19
CCOC(=O)N1CCC2(CC1)C(C#N)=C(N)Oc1n[nH]c(C)c12,nt,nt,2036,-8,-1,1.6,-9
O=S(=O)(c1ccccc1)c1nnn2c1nc(NC1CCN(Cc3ccccc3)CC1)c1cc(Cl)ccc12,nt,nt,10262,-2,nt,nt,6
O=C1NCCc2c1[nH]c1ccccc21,4,3,3581,2,6,5.9,-22
CC1CCN(CCOCCOc2ccc(Br)cc2Cl)CC1,13,21,7596,5,-6,4.3,-10
CCCCOc1ccccc1-c1cc(C(=O)O)[nH]n1,nt,nt,2364,3,-1,4.7,-10
SMILES,Mtb hypoxia rep,Mtb hypoxia rep growth,Bead autofluor,BJeLR lethal,Sa ugtP lethal,RN4220 kill,PrP UTR inh
CN1CCN(C(=S)Nc2cc(S(=O)(=O)N3CCOCC3)ccc2Cl)CC1,-7,-4,3119,-10,6,3.1,-20
COC(=O)c1ccc(NC(=O)CCC(=O)c2ccc(F)cc2)cc1,-2,-3,3543,11,-1,-0.7,-23
COCCNC(=O)c1cccc(NC(=O)C2=C(C)OCCS2)c1,2,2,3238,-2,15,6.0,-19
O=C(Nc1ccccc1)c1cc(S(=O)(=O)N2CCCCC2)ccc1N1CCOCC1,6,5,4099,nt,3,1.5,-21
Nc1ncnc(Nc2ccc(F)c(Cl)c2)n1,-1,-3,3284,-1,1,5.1,-15
Cc1nc(CN(C)C(=O)c2ccccc2OC2CCN(S(C)(=O)=O)CC2)cs1,3,7,4699,3,0,2.8,-12
CSc1ccc(C2C3(C#N)C(N)=NC4(OCCO4)C23C#N)cc1 (configuration not stated),7,0,2377,-12,28,-0.5,7
c1coc(CN=C2NC(=NCc3ccco3)c3ccccc32)c1,1,4,8584,0,3,2.4,-23
Nc1nnc(COc2ccccc2)s1,-4,5,2716,-10,-1,15,-15
O=C1OCCN1c1c(-c2ccccc2)c(-c2cccs2)nc2c(-c3ccccc3)cccc12,8,11,3559,-15,1,3.8,-7
COc1ccc2c(c1)Cc1sc(NC(=O)c3ccco3)nc1-2,8,8,3373,-4,-21,-0.5,-96
CC(C)Cc1nnc(NC(=O)c2cc(S(=O)(=O)N(C)C)ccc2N2CCCC2)s1,1,-8,6620,21,5,3.3,-5
Cc1ccc(C(C)C)c(OCC(=O)Nc2ccc(Cl)cn2)c1,-6,-3,4803,-7,34,-1.7,-7
COc1ccccc1OCCNc1cc(N2CCCCC2)ccc1[N+](=O)[O-],14,12,11331,-3,-3,7.2,-12
Cn1nnnc1SCc1nc2scc(-c3ccc(Cl)cc3)c2c(=O)[nH]1,-12,0,6597,4,-13,-5.6,-30
CNC(=S)N1N=C(c2cccs2)CC1c1ccc(F)cc1 (configuration not stated),-7,7,3676,-3,-4,-3.1,nt
CC(=O)c1ccc(NS(=O)(=O)Cc2ccccc2)cc1,-3,6,12649,-3,1,-0.8,-9
COc1cccc(C2=NO[C@@H]3C(=O)N(c4ccc5c(c4)OCCO5)C(=O)[C@H]23)c1OC,-2,2,20829*,0,-6,3.2,-16
Cc1cc(C(=O)NNc2ccccc2F)no1,2,5,nt,-7,9,1.7,-8
O=C(NN1C(=O)/C(=C\c2cccnc2)SC1=S)C(c1ccccc1)c1ccccc1,-3,6,2033,-2,-7,15,-14
CS(=O)(=O)Nc1cccc(C(=O)CC2(O)C(=O)Nc3ccccc32)c1 (configuration not stated),2,7,8401,-1,7,3.6,-19
CCN1C(=O)/C(=C/C=C2/Sc3ccc4ccccc4c3N2CCO)SC1=S,13,-14,6919,11,-21,-22,-14
O=CN1CCN(S(=O)(=O)c2ccc(S(=O)(=O)NC3CCCCC3)cc2)CC1,-3,-5,4298,-3,-5,1.9,0
COc1cccc(NC(=O)c2ccc(CN3CCc4ccccc4C3)cc2)c1,-9,2,nt,7,4,-1.3,-17
COc1ccc(CNC(=O)CN(Cc2ccc(F)cc2)C(=O)c2csnn2)cc1,4,6,4496,2,4,0.0,-26

# By substructure, those above containing an NH in an aromatic ring
SMILES,Mtb hypoxia rep,Mtb hypoxia rep growth,Bead autofluor,BJeLR lethal,Sa ugtP lethal,RN4220 kill,PrP UTR inh
CC(C)N(Cc1cc2ccccc2[nH]c1=O)C(=O)c1ccco1,3,0,2716,-5,0,4.9,1
COC(=O)C(Cc1c[nH]c2ccccc12)NC(=O)c1ccccc1Br (configuration not stated),15,2,3359,-6,8,6.8,-19
CCOC(=O)N1CCC2(CC1)C(C#N)=C(N)Oc1n[nH]c(C)c12,nt,nt,2036,-8,-1,1.6,-9
O=C1NCCc2c1[nH]c1ccccc21,4,3,3581,2,6,5.9,-22
CCCCOc1ccccc1-c1cc(C(=O)O)[nH]n1,nt,nt,2364,3,-1,4.7,-10
Cn1nnnc1SCc1nc2scc(-c3ccc(Cl)cc3)c2c(=O)[nH]1,-12,0,6597,4,-13,-5.6,-30

# The results go on.
SMILES,Mtb hypoxia rep,Mtb hypoxia rep growth,Bead autofluor,BJeLR lethal,Sa ugtP lethal,RN4220 kill,PrP UTR inh
Cc1ccc(Cn2ncc3c(NCCCN4CCOCC4)ncnc32)cc1,4,9,3980,2,-8,-21,-19
Cc1nnc(NC(=O)CSCc2c(C)noc2C)s1,6,0,5060,8,6,3.2,-19
CC1CN=C(NCc2ccc(F)cc2)S1 (configuration not stated),-4,6,2090,3,3,4.5,-12
CCOc1ccc(N2C(=O)NC(=O)C(=Cc3ccc(N4CCCCC4)o3)C2=O)cc1,40*,14*,nt,nt,2,2.7,nt
O=C(NCc1ccccc1)c1ccc(Cl)cc1,nt,nt,nt,-8,3,10,nt
O=C(Cn1c(C(F)(F)F)nc2ccccc21)OCC(=O)c1c[nH]c2ccccc12,-2,1,4605,11,-3,0.0,-13
CC(Sc1nnc(-c2ccco2)n1C)C(=O)N1C(C)CCCC1C (configuration not stated),7,10,5747,-3,6,2.3,-20
CCOC(=O)c1ccc(NC(=S)Nc2cccc(C)n2)cc1,nt,nt,10533,-7,nt,nt,-49
O=C(O)C1=C[C@@H](c2ccc(C(F)(F)F)cc2)C[C@@H](OCCCCO)O1,nt,nt,3570,12,nt,nt,-25
c1ccc(-c2noc(CCC3CCCC3)n2)cc1,1,-3,4031,-2,5,22,-85
O=C(CN1CCOCC1)Nc1ncc(Cc2cccc(Cl)c2Cl)s1,4,1,2260,nt,-4,5.7,-18
COc1cccc(N=C(N)N=C(N)N)c1,-4,-1,?,-10,9,3.0,-2
CCNC(=O)N1c2ccc(OC)cc2C(C)=CC1(C)C,0,6,15958,-2,-7,-3.9,-23
O=C(NC1CCCC1)C(c1ccco1)N(C(=O)c1csnn1)c1ccccc1 (configuration not stated),5,3,3406,-3,12,3.7,-14
CSc1ccc(/C=N/NC(=O)CN2CCN(Cc3ccccc3)CC2)cc1,nt,nt,2057,-2,nt,nt,-26
O=C(NCc1cccnc1)c1cccc(S(=O)(=O)N2CCCCC2)c1,5,8,7360,-2,14,4.1,-15
COc1cccc(NC(=S)N(CCCN2CCCC(C)C2)Cc2cccs2)c1 (configuration not stated),17,-3,3733,2,3,5.6,-9
CN(C)c1ccc(C2Nc3ccccc3C(=O)N2CCCN2CCOCC2)cc1 (configuration not stated),-4,6,5817,6,0,4.7,-11
Cc1ccccc1-c1nc(CS(=O)(=O)CC(=O)NCCCN2C(C)CCCC2C)c(C)o1 (configuration not stated),8,7,8025,-7,-7,-8.7,-12
Cc1ccccc1OCc1nc2ccccc2c(=O)n1NC(=O)c1ccco1,nt,nt,3734,-4,-8,0.5,-19
Cc1ccc(C(=O)CNc2ccc(Cl)cc2)cc1,9,3,3295,1,13,7.5,-28
CC1CC1C(=O)N(C)CC(=O)Nc1ccccc1Br (configuration not stated),-2,-2,3664,nt,6,7.3,-11
O=C(/C=C/c1ccc(Cl)cc1)NC1CCS(=O)(=O)C1 (configuration not stated),13,6,3597,5,5,6.7,-24
Nc1c(NCCN2CCOCC2)c2ccccc2oc1=O,6,8,3228,9,-3,-8.8,-24
CCCCn1c(Cc2ccccc2)nnc1SCC(=O)N1CCOCC1,9,4,3812,-28,4,4.9,-41
SMILES,Mtb hypoxia rep,Mtb hypoxia rep growth,Bead autofluor,BJeLR lethal,Sa ugtP lethal,RN4220 kill,PrP UTR inh
Cc1ccc(OCC(=O)NNC(=O)c2ccc(NC(=O)C3CC3)cc2)c(C)c1,18,8,5997,-4,2,0.9,-25
COc1ccccc1/C=C1\SC(=S)N(CCC(=O)NNC(=O)c2ccccc2OC)C1=O,6,-4,4206,-5,-11,6.0,-17
CCOC(=O)CC1C(=O)NCCN1C(=O)c1c(Cl)cccc1Cl (configuration not stated),14,5,3680,-7,4,-0.4,2
CCOC(=O)c1c(C)[nH]c(C)c1S(=O)(=O)N(C)CC(=O)Nc1cc(C)ccc1OC,1,-8,5058,6,-2,1.6,-1
CC(OC(=O)CCSc1ccccc1)C(=O)Nc1ccc(S(N)(=O)=O)cc1 (configuration not stated),8,1,4707,-1,3,1.2,-7
CC(C)N(C(=O)CSc1nc2ccccc2n1Cc1ccccc1)C(C)C,10,5,9237,-4,11,2.7,-17

# A draw from above in order of formula weight, low to high.
SMILES,Mtb hypoxia rep,Mtb hypoxia rep growth,Bead autofluor,BJeLR lethal,Sa ugtP lethal,RN4220 kill,PrP UTR inh
CCOC(=O)CC1C(=O)NCCN1C(=O)c1c(Cl)cccc1Cl (configuration not stated),14,5,3680,-7,4,-0.4,2
Cc1ccc(OCC(=O)NNC(=O)c2ccc(NC(=O)C3CC3)cc2)c(C)c1,18,8,5997,-4,2,0.9,-25
CC(C)N(C(=O)CSc1nc2ccccc2n1Cc1ccccc1)C(C)C,10,5,9237,-4,11,2.7,-17
